Screening data (PubChem BioAssay)
gsp ag = agonists of gsp mutant (McCune-Albright syndrome); gsp mutant cells, cAMP HTRF, 30 min; control for the full effect not named in the record; Potency, µM (series often up to 76.9 µM), without a hit: at the top dose activation (cAMP increase), actives largely listed as activators; 340,000 tested, 0.13% active; active = well fitted activation curve with a large enough effect; inconclusive = small, poorly fitted or top-dose-only effect, or another doubt; inactive = no such curve, though single readings can be large or run the other way; cell line not stated here;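 further: phosphodiesterase inhibitor Ro 20-1724 added with compounds to block cAMP breakdown; potency means the concentration at half of the fitted maximal effect; nearly all actives have a fitted effect of over 60% in size; about a fifth of the inactives were tested at one dose only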
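Cells in DMEM/10% FBS with G418 were pretreated with compounds in DMSO plus […] (300 uM stock) for 30 min at 37C. cAMP was measured by HTRF (cAMP-d2 plus anti-cAMP antibody-K) after 30 min at room temperature.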
Menin-MLL FL inh = menin-MLL binding inhibition, fluorescein peptide; Fluorescence polarization, fluorescein-MLL peptide displacement from menin; FP activity change, % at 61.4 µM; AID 1766; 290,000 tested, under 10 active; inconclusive = falling polarisation curve, or a change in total fluorescence; inactive = total fluorescence flat and polarisation flat or rising; no compound was filed as active; the % refers to the polarisation; negative = inhibition;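 further: % of control where 0% means no effect; inhibitors lower the polarisation; unlabelled MLL peptide was the positive control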
ClpP mod = qHTS Assay for Activators of ClpP; AID 651965, 2013; 340,000 tested, 1.9% active; ATP-dependent Clp protease proteolytic subunit (Bacillus subtilis (strain 168)), P80244; purified B. subtilis ClpP, FRET peptide cleavage, 20 min; Potency, µM (series often up to 57.5 µM), for the others: at the highest dose activity change, negative = active; active = well fitted falling curve with a large enough effect; inconclusive = small, poorly fitted or top-dose-only effect; inactive = no such curve, though single readings can be large or run the other way; further: potency means the concentration at half of the fitted maximal effect; the source files actives as falling curves though it sought activators and does not explain the sign; nearly all actives have a fitted effect of over 65% in size; many hits overshoot -100%
Target sequence (P80244 whole entry, looked up): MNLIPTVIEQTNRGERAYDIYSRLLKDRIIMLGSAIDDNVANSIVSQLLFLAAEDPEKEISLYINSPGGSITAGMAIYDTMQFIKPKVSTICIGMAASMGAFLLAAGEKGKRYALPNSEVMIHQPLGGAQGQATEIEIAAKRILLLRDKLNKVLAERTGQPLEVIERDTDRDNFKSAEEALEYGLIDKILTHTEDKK
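Purified B. subtilis ClpP, 10 microg/mL final in Tris/HCl pH8 with KCl, BSA, glycerol and Tween-20, cleaved an Abz/nitrotyrosine-quenched decapeptide. Fluorescence (ex 320, em 430) was read at 0 and 20 min at room temperature. Delta was normalized to 5.8 microM ADEP and DMSO/no-enzyme controls.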
gsp antagonist = antagonizes gsp, the McCune-Albright syndrome mutation | 340,000 tested, 0.4% active | Potency, µM (top dose mostly 76.9 µM), for inactives: at the top dose activity change, negative = inhibition, actives largely listed as inhibitors | AID 624288 | gsp-mutant cells, cAMP HTRF, 30 min; control for the full effect not named in the record; active = falling curve of any shape with a large fitted effect; inconclusive = falling curve, mostly with a smaller effect; inactive = flat or rising curve; cell line not stated here;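 further: intracellular cAMP measured with PDE inhibitor Ro 20-1724 present during compound exposure; potency means the concentration at half of the fitted maximal effect; on the % scale 0 is the no-effect control and ±100 the full control effect; nearly all actives have a fitted effect of over 65% in size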
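Measurement of cellular cAMP by homogeneous time-resolved fluorescence following a 30 min compound exposure at 37C. The PDE inhibitor […] was present throughout; the assay buffer was DPBS with 0.05% BSA and 0.005% Tween 20.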
Sfp PPTase inh = inhibitors of Bacillus subtilis Sfp phosphopantetheinyl transferase; Potency, µM, for the others: max response, negative = inhibition, usual class: inhibitors; AID 1490; Biochemical Sfp PPTase activity, qHTS; 310,000 tested, 3.5% active; Q9F4F7; active means well fitted inhibition curve with a large enough effect; inconclusive means small, poorly fitted or top-dose-only effect, or another doubt; inactive means no such curve, though single readings can be large or run the other way;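 further: the enzyme is Sfp with the accession as filed and its product quenches rhodamine fluorescence; potency means the concentration at half of the fitted maximal effect; 0% = enzyme reaction without inhibitor and -100% = no enzyme wells; top concentration of the series not given in the record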
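With Hepes-Na pH 7.6 buffer containing 10 mM MgCl2, Sfp (15 nM) modified BHQ-2-YbbR (12.5 uM) using rhodamine-CoA (5 uM). Two reads 30 minutes apart at 525/598 nm yielded each well's rate.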
TRPV1 PAM = enhances activation of the human vanilloid receptor TRPV1 | Q8NER1 | TRPV1-expressing cells, Fluo-8 calcium influx, capsaicin EC20 potentiation; host cell line not named in the record; control for the full effect not named in the record | potentiation, % at 8.33 µM | 320,000 tested, 0.02% active | AID 540277; active means potentiation above 80%; inconclusive means 30% to 80%; inactive means below 30%; further: 0% is about no effect
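Cells expressing TRPV1 were dye-loaded with Fluo-8 and read kinetically: 10 s baseline, 3 min after compound (agonist portion), then 2 min after EC20 capsaicin (allosteric enhancer portion). Calcium-bound dye fluorescence at 480/520 nm.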
D2 potentiator = positive allosteric modulators of human D2 dopamine receptor. P14416. 360,000 tested, 0.23% active. AID 624464. potentiation, % (test concentration not listed). DiscoveRx D2 beta-arrestin cells, luminescence, 90 min; 100% = 57 uM dopamine signal; active = potentiation of 50% or more; inconclusive = 30% to 50%; inactive = 30% or less;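 further: compound concentration not given in the record; tested on top of an EC20 dose of dopamine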
Target sequence (P14416 whole entry, looked up): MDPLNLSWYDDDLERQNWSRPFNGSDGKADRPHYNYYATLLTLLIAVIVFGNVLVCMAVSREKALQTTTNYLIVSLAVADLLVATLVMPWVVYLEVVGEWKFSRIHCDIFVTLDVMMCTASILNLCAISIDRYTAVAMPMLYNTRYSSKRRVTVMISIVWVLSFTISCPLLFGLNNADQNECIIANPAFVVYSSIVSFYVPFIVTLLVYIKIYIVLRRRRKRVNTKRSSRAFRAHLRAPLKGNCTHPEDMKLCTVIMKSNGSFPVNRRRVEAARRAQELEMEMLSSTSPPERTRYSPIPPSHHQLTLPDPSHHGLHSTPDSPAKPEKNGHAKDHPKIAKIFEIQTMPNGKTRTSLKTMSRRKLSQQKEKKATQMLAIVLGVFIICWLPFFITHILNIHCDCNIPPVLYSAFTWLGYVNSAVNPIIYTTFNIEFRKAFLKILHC
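PathHunter D2 cells, attached overnight at 37 deg C, received compound in DMSO plus dopamine at EC20 (50 nM final) for 90 min at 37 deg C. Beta-arrestin recruitment was read as luminescence after 1 h with detection reagent at ambient temperature.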
Starred values were filed as active, the others as inactive; ? = inconclusive; · = not tested or not shown; [ ] = dose if it differs, or a comment. Rows are unselected; overall some 5.1% were active at least once.

SMILES	gsp ag	Menin-MLL FL inh	ClpP mod	gsp antagonist	Sfp PPTase inh	TRPV1 PAM	D2 potentiator
COc1ccc(NS(=O)(=O)c2cccc(C(=O)NCC(c3ccc(OC)cc3)N3CCOCC3)c2)cc1 (stereo not given)	0%[15.4 µM]	·	·	-17%	16%	7	-3
COc1cc(/C=N/Nc2ccc(C(=O)O)cc2)cc(OC)c1OC	-1%	0.3	-3.4%	-8%	14%	5	2
Cc1cc(NC(=O)CN2CCN(c3ncccn3)CC2)no1	1%	-8.1	-0.9%	5%	-18%	-1	-6
COc1ccc(N2CCN(CC(O)COc3ccc(F)cc3)CC2)cc1 (stereo not given)	-8%	-17	-2.9%	11%	-2%	16	-13
Cc1noc(C)c1NC(=O)N(C)C[C@H]1OCCCC[C@@H](C)Oc2ccc(NC(=O)Nc3ccc(F)cc3)cc2C(=O)N([C@@H](C)CO)C[C@H]1C	-9%	·	-2.2%	·	·	·	-8
Cc1ccc(C(=O)NC2CC(C)(C)NC(C)(C)C2)c(C)c1	-38%[inhibitor]	-0.3	0.7%	-2%	1%	1	18
CCn1cc(C(=O)Nc2ccc(-n3cnnn3)c(OC)c2)c(=O)c2ccc(C)nc21	·	-0.7	·	·	10%	-3	·
Cc1cc(/C=c2/sc3nc4ccccc4n3c2=O)c(C)n1-c1ccccn1	17%	?	-1.5%	-14%	-23%	12	-5
O=C(CNC(=O)c1cc2ccccc2o1)NCc1cccs1	?	2.6	-1.5%	9%	1%	1	-4
COc1ccc(C(C(=O)NCC2CCCO2)N(C(=O)CNC(=O)c2ccco2)c2cc(C)cc(C)c2)cc1OC (stereo not given)	-39%[inhibitor]	-9.8	·	6%	15%	?	-6
OCC1OC(n2cnc3c(N4CCCC4)ncnc32)C(O)C1O (stereo not given)	36%	·	0.9%	·	·	·	-5
CC(=O)c1ccc2cccc3c2c1N=CN3C	1%	?	0.3%	-18%	?	17	30
CCOC(=O)c1ccc2c(c1)nc(SCC(=O)c1cc3ccccc3o1)n2CC	3%	?	-0.5%	-14%	4%	22	3
O=C(NC1CCN(C(=O)N2c3ccccc3Sc3ccccc32)CC1)c1ccco1	-2%	0.2	0.8%	?	1%	-3	-20
COc1ccc(NC(=O)Nc2ccc(C)cc2Br)c(OC)c1	-1%	-2.4	·	6%	16%	?	-1
O=C(CSc1nnc(-c2ccccc2)n1CC1CCCO1)N1CCCC1 (stereo not given)	-1%[15.4 µM]	-0.5	·	3%	28%	20	-9
O=P(CCCCCCCCCP(=O)(c1ccccc1)c1ccccc1)(c1ccccc1)c1ccccc1	-26%	-0.9	-0.7%	40µM*	-31%	13	9
C=CCn1c(N)cc(=O)nc1SCC(=O)Nc1ccccc1	3%	1.2	-0.5%	15%	15%	-2	2
COCC1CCN(Cc2nc(Cc3ccccc3Cl)no2)CC1	2%[15.4 µM]	0.7	·	11%	7%	4	-7
CS(=O)(=O)N(CCc1ccccc1)CC(=O)N1CCN(Cc2ccc3c(c2)OCO3)CC1	-16%	-1.5	0.3%	-14%	-8%	22	-10
Cc1cc(C)nc(NS(=O)(=O)c2ccc(NC(=O)c3ccc(O)cc3O)cc2)n1	2%[15.4 µM]	-2.3	-1.3%	-1%	1%	-13	-10
Cc1nn(C)cc1NC(=O)c1ccc(Br)o1	-15%	2.9	28%	13%	5%	7	-14
CC1CC(C)CN(S(=O)(=O)c2ccc(C(=O)Nc3nnc(C4CC4)o3)cc2)C1 (stereo not given)	19%	2.3	-1.8%	-21%	22%	8	1
COCCNS(=O)(=O)c1ccc(-c2ccc(C)cc2)cc1	14%	0.1	-6.9%	0%	18%	-1	-7
CCN(C(=O)CSc1nnc(-c2ccc(F)cc2)n1C)C1CCS(=O)(=O)C1 (stereo not given)	-9%	·	·	3%	·	·	6
Cc1cc(=O)c2c(C)nn(-c3ccccc3)c2[nH]1	-5%	10	-15%	5%	23%	3	-10
O=C1C=CC(n2cc(F)c(=O)[nH]c2=O)O1 (stereo not given)	12%	·	-2.2%	·	·	·	-11
OCCCn1c(CCNc2nc(-c3ccc(F)cc3)cs2)nc2cc(C(F)(F)F)ccc21	-35%[inhibitor]	·	0.5%	?	·	·	-15
Cc1ccc(C(O)c2nc3ccccc3n2C(C)C)cc1 (stereo not given)	-2%[15.4 µM]	0.6	0.7%	-2%	18%	24	-5
O=C(NCc1cccnc1)c1noc2c1CCCCC2	7%	2.8	-1.5%	6%	15%	3	0
Cc1ccc(C(=O)N(NC2=NS(=O)(=O)c3ccccc32)S(=O)(=O)c2ccc(C)cc2)cc1	15%	4.6	-2.7%	-10%	25%	?	1
CCOC(=O)CNC(=O)N(CCOC)CC1CCCN(C2Cc3ccccc3C2)C1 (stereo not given)	10%	-7.4	0.3%	-2%	15%	?	-2
COc1ccc(OCC(O)CN(CCO)CC(O)Cn2ccc3ccccc32)cc1 (stereo not given)	8%[15.4 µM]	3.2	·	-4%	1%	-7	-13
CCOC(=O)c1nc(Nc2ccc(N3CCC(C)CC3)cc2)c2ccccc2n1	?	-1.3	-1.0%	-18%	-12%	-3	-2
O=C(Cn1nnc2ccccc2c1=O)NCCc1ccc(F)cc1	·	0.8	·	·	7%	-2	·
CCN(C(=O)CSc1nc2nc(C)cc(C)n2n1)C1CCS(=O)(=O)C1 (stereo not given)	-15%[15.4 µM]	-1.2	16µM*	6%	4%	-1	-3
O=C(COc1cccc(F)c1)NNC(=O)c1cccc(-n2cccc2)c1	-6%[15.4 µM]	·	·	2%	·	8	0
COc1ccc(OC)c(CN(CCN2CCOCC2)S(=O)(=O)c2ccc(NC(C)=O)cc2)c1	1%	2.7	-3.4%	-3%	-2%	-2	-9
Cc1ccccc1C(=O)NC(=S)Nc1sc2c(c1C#N)CCCC2	-25%	3.8	?	-17%	9%	6	5
CCOC(=O)c1sc(=S)n(-c2ccccc2Cl)c1C	-3%	-1.4	·	2%	-7%	-9	-8
C#CCN(C[C@@H]1[C@@H](OC(=O)NC2CCCC2)[C@@H](OC(=O)NC2CCCC2)CN(C(=O)OC(C)C)N1C(=O)OC(C)C)S(=O)(=O)c1ccc(C)cc1	?	·	-1.8%	·	·	·	-2
COC(=O)CNC(=O)C1CCC(CNS(=O)(=O)c2cccc3nsnc23)CC1 (stereo not given)	-25%	·	-1.3%	-9%	19%	18	-10
COc1ccc(S(=O)(=O)N2CCN(C(=O)COc3ccccc3)CC2)cc1	-5%	0.8	4.3%	-3%	13%	-10	-4
CC(C)(C)NC(=O)CCN(/N=C/c1ccccc1F)C1=NS(=O)(=O)c2ccccc21	13%	-1.2	·	-2%	3%	-9	-4
COc1ccc(/C=N/S(=O)(=O)c2cccs2)cc1	19%	1.1	0.8%	10%	29%	-5	-20
CC1C(=O)OC(c2ccc(Br)cc2)C(C)(C)C1=O (stereo not given)	-20%	1.0	0.1%	17%	15%	-13	-2
COc1cccc(CNC(=O)CCNC(=O)Cn2ccc3ccccc3c2=O)c1	-28%	-2.2	-10%	5%	18%	5	12
CC1CCN(C(=O)c2ccc3c(c2)OCCO3)CC1	-7%[15.4 µM]	0.0	-7.5%	10%	-13%	7	-36
Cc1cccc(NC(=O)C2CCN(S(=O)(=O)c3ccc4c(c3)NC(=O)CO4)CC2)c1C	1%	1.0	-0.1%	-5%	2%	-10	-3
COc1ccc(N2C(=O)C3ON(C4SC(=S)N(C)C4(C)C)C(c4ccc([N+](=O)[O-])cc4)C3C2=O)cc1 (stereo not given)	-39%[inhibitor]	1.3	-2.2%	-6%	8%	0	-18
Cc1ccc2c(c1)N/C(=C(\C=C(/Cl)[N+](=O)[O-])[N+](=O)[O-])N2	·	23	·	·	35µM*	23	·
Clc1ccc(-c2nnc(-c3ccccc3)c(-c3ccccc3)n2)cc1	-15%[15.4 µM]	1.0	-2.7%	-11%	-6%	5	-11
CCc1nc(SCC(=O)Nc2sc(C)c(C)c2C(=O)OC)c2ccccc2n1	·	6.7	·	·	7%	8	·
CCOc1ccc(S(=O)(=O)NNC(=O)c2cc3ccccc3o2)cc1	1%	6.5	-8.5%	-25%	11%	-9	-4
COc1ccc(CNc2cc(C)nc3ncnn23)c(OC)c1	-2%	3.6	1.2%	0%	15%	-11	11
O=C(C1=COCCO1)N(Cc1nnc(-c2ccc(Cl)cc2)o1)C1CC1	-3%[15.4 µM]	·	·	-4%	·	10	3
Cc1cc2nc3c(=O)n(C4CCCCC4)c(=O)[nH]c3nc2cc1N	-1%[15.4 µM]	-0.2	·	-17%	2%	-19	9
O=C(CCC(=O)Nc1ccccc1)N/N=C/c1ccccc1F	6%[15.4 µM]	-4.1	·	5%	6%	7	-10
Cc1ccc(-c2cn(S(=O)(=O)c3cccc4nsnc34)nc2N)cc1	-4%	-0.6	-4.4%	-13%	-7%	12	-29
CCCN(CCC)c1ccc(/C=N/NC(=O)CN2CCOCC2)cc1	-17%	7.1	·	2%	6%	0	-4

Further records follow:
SMILES	gsp ag	Menin-MLL FL inh	ClpP mod	gsp antagonist	Sfp PPTase inh	TRPV1 PAM	D2 potentiator
Cc1cc2ncn(S(=O)(=O)N(C)C)c2cc1C	8%	3.7	-1.7%	1%	9%	-12	-11
COc1cc(NS(=O)(=O)c2ccc3c(c2)C(C)(C)C(=O)N3C)cc(OC)c1	10%	-4.3	1.6%	0%	9%	1	0
O=S(=O)(NC(=NCc1ccccc1)c1ccccc1)c1ccccc1	6%	-4.2	·	8%	15%	-1	-5
CCc1ccc(-c2csc3ncn(Cc4ccc(C(=O)O)cc4)c(=O)c23)cc1	?	-1.8	·	-24%	1%	21	0
COc1ccc(CNC(=O)Cn2cnc3c(SC)nc(N)nc32)cc1	·	·	-22%	2%	·	·	-1
CCOc1ccc(NC(=O)CC2C(=O)N(CC)C(=S)N2CCNC(C)=O)cc1 (stereo not given)	-3%[15.4 µM]	-6.0	-2.7%	13%	2%	-1	-3
CC(C)CNC(=O)[C@H](Cc1ccccc1)NC(=O)c1ccco1	-3%	0.4	-3.1%	16%	-8%	9	3
